# Compound activity: PubChem, several laboratories
# RanGTP-Imp inh: inhibitors of RanGTP-importin-beta interaction, primary screen, biochemical, FRET, CFP-Ran, YFP-importin-beta, homogeneous; Ran GTPase (GTP-bound) - importin-beta complex; cell-free CFP-Ran/YFP-importin-beta FRET ratio; inhibition, % (no concentration beside the values); 300,000 compounds, 1.1% hits; AID 2216, 2009;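 active = most replicates above 15%; inconclusive = exactly half above 15%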;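 note: 0% = DMSO wells and 100% = Ran loaded with GDP instead of GTP; wells of about 40 µL received 100 nL stock; the first replicate is given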
# A1 inh: caspase 3/7 activation in MEF A1-2A-BIM cells, primary screen, A1 inhibitor project, cell-based, luminescence, HTS; 330,000 compounds, 0.066% hits; Caspase-Glo 3/7 luminescence, 3 h; percent of clofoctol response, vehicle zero; caspase activation, % (no concentration beside the values);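 active = over half of replicate activation scores above 10%, or exactly half above 10 with the replicate mean above 10; inconclusive = replicate mean below 10 yet half the replicates above 10; inactive = over half of replicates below 10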;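 note: wells of about 30 µL received 50 nL stock; many hits fall short of the cut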
# MLL AF4-AF9 inh: inhibitors of AF4 peptide binding to AF9, primary screen, biochemical, AlphaScreen, biotin-AF4 peptide, FLAG-AF9, single point; Protein AF-9 (Homo sapiens), P42568; inhibition, % at 10 µM; 350,000 compounds, 0.47% hits;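 active = every replicate reaching a set inhibition limit, whatever the replicate mean, cut at about 25% in these data; inconclusive = mean inhibition reaches that limit but some replicates miss it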;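 note: 0% = plate neutral control median and 100% = total signal loss; the record names both 10 and 1 µM as test concentration; the first replicate is given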
# Target sequence (P42568 whole entry, looked up): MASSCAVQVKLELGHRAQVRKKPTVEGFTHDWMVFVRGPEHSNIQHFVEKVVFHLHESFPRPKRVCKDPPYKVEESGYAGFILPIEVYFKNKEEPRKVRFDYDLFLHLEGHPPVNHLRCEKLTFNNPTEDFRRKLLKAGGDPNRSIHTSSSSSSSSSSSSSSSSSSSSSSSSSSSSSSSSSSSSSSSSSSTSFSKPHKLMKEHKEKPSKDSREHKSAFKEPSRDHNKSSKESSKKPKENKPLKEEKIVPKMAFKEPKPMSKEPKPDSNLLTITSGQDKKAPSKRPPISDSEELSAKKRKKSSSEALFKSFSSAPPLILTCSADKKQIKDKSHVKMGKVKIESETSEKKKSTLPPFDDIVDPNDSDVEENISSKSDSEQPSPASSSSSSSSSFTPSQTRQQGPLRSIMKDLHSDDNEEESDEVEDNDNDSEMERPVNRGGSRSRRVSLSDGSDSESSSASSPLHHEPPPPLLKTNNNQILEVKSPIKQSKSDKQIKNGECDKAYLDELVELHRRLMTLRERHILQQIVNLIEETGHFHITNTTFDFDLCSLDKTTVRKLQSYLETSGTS
# Vif A3G: inhibitors of Vif binding to APOBEC3G peptide, primary screen, biochemical, TR-FRET, GST-Vif 1-94, biotin-A3G peptide, dose response retest (AID 1117319); Virion infectivity factor (Human immunodeficiency virus type 1 group M subtype B (isolate …; TR-FRET GST-Vif / biotin-A3G peptide binding; higher % means a stronger effect; test concentration not given here; strong numbers were not always called active; inhibition, %; hits with a dose series show IC50 in µM; 260,000 compounds, 0.57% hits;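 active = above the screen mean plus three standard deviations and confirmed in dose response; inconclusive = results disagree or hit not tested in dose response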;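 note: Vif residues 1-94 fused to GST binding biotinylated APOBEC3G peptide 110-148; 0% = full assay without inhibitor and 100% = GST in place of GST-Vif; retest series ran down from 100 µM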
# rRNA inh HTS: reduced GFP signal of wild-type E. coli, primary screen, bacterial rRNA inhibitor project, GFP/RFP fluorescence, OD600, single point | E. coli WT GFP vs humanized-ribosome RFP mutants, 24 h; stronger effect = lower value; DMSO median 0, no signal -100 | GFP signal change (wild-type ribosome), % (test concentration not listed) | 350,000 compounds, 1.6% hits | AID 720706, 2013;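 active = significant combined selectivity score with lowered wild-type GFP, culture density cut under 30%, mutant RFP and density less affected; inactive = any of these conditions unmet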; note: one replicate is shown; some compounds called inactive have numbers as strong as hits
# T cruzi inh: inhibitors of intracellular T. cruzi growth, primary screen, luminescence, NIH3T3 host cells | T. cruzi beta-gal in NIH3T3, 90 h | inhibition, % (no concentration beside the values) | 300,000 compounds, 1.4% hits;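 active = mean inhibition across valid replicates above about 55%, limit read from the data; inconclusive = mean below that limit but half or more replicates reach it; inactive = mean below it, under half of replicates reach it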;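 note: signal also drops with host cell toxicity which is not excluded here; 0% = plate median of DMSO wells and 100% = zero luminescence signal; higher percent means less beta-gal luminescence so fewer parasites; stock transfer was 50 nL into about 50 µL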
# Calb FLC: C. albicans growth inhibition with fluconazole, primary screen, CaCi-2 strain, Alamar Blue fluorescence; C. albicans CaCi-2 (fluconazole-resistant clinical isolate) + fluconazole, 48 h; growth inhibition, % (test concentration not listed); 300,000 compounds, 0.57% hits; AID 1979, 2009;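 active = most replicates above 75%; inconclusive = exactly half above 75%; inactive = most below 75%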;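 note: all wells also contain fluconazole at 8 µg/ml as a sub-toxic cotreatment; 0% = median of DMSO wells and 100% = median of geldanamycin control wells; wells of about 8 µL received 7.5 nL stock; the first replicate is given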
# Beta apoptosis: inhibitors of cytokine-induced beta cell apoptosis, primary screen, luminescence; INS-1E cytokine-induced death, ATP luminescence, 48 h; percent of positive-control rescue, neutral wells zero; protection from apoptosis, % (concentration not given with the values); 300,000 compounds, 0.8% hits; AID 435005, 2010;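 active = all replicates at 75% or more, or half of them and the mean; inconclusive = half reach 75% but not the mean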;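 note: 0% = cytokine-treated negative control wells and 100% = positive control rescue; higher means more ATP so stronger rescue from cytokine killing; wells of about 40 µL received 100 nL stock; the first replicate is given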
# rRNA inh HTS OD600: further read-out of rRNA inh HTS, marked with its call; OD600 change, %; measured here: OD600 growth;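 optical density of the mix in the first replicate; 0 = DMSO median and -100 = no signal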
# rRNA inh HTS RFP: second read-out of rRNA inh HTS, no call of its own (marks repeat the call); RFP signal change, %; measured here: RFP humanized mutant strains;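 first replicate; 0 = DMSO median and -100 = no signal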
# An asterisk follows results filed as active; ? = inconclusive; · = no result given. Not all compounds are listed; count on the stated rates, not on these rows.
structure,RanGTP-Imp inh,Calb FLC,rRNA inh HTS RFP,Vif A3G,rRNA inh HTS OD600,T cruzi inh,MLL AF4-AF9 inh,Beta apoptosis,rRNA inh HTS,A1 inh
C/C(=C\C(=O)c1cccnc1)Nc1ccc(C(=O)O)cc1,?,5,-0.8,-1%,-2,-15,·,-7,6,-0.1
CC(NC(=O)/C(C#N)=C/c1cn[nH]c1-c1ccccc1)c1ccccc1 (stereo unspecified),0.9,8,-8.5,66%,-23,-4,·,-8,-9,?
CCCCOC(=O)c1nnc(-c2ccc(Cl)cc2)o1,-2.3,2,-0.2,23%,8,-13,3.7,-11,8,0.2
Cc1c(CCOC(=O)C23CC4CC(CC(C)(C4)C2)C3)sc[n+]1CC(=O)c1ccccc1,?,15,-20,·,-74,22,14,54,-57,-0.7
Brc1ccc2c(c1)C(c1ccc(N3CCOCC3)cc1)=NNC(c1cccs1)=N2,3.3,-10,·,3%,·,22,·,1,·,-0.9
COc1ccccc1NS(=O)(=O)c1ccc(C)c(C(=O)NCC(c2ccco2)N(C)C)c1 (stereo unspecified),1.4,2,1.3,0%,0,4,-2.3,·,4,-1.3
COc1ccc(NC(=O)c2cccc(S(=O)(=O)N3CCCCC3)c2)c(OC)c1,0.7,16,0.7,·,-7,12,2.3,-1,-6,0.1
O=C(CN1C(=O)C2CCCN2C(=O)c2ccccc21)Nc1ccccc1-n1cccc1 (stereo unspecified),-1.0,-2,·,·,·,-19,·,-5,·,-0.3
C=CCn1c(O)c(C2=c3ccccc3=NC2=O)s/c1=N/c1nccs1,3.1,3,-5.0,-2%,3,-21,-0.8,3,9,-0.3
CCc1ccc(OCCNC(=O)c2ccccc2SCc2ccccc2)cc1,5.0,1,·,0%,·,0,·,1,·,0.2
CN(Cc1cccs1)C(=O)CCNS(=O)(=O)c1ccc(Br)cc1,·,·,-2.4,-10%,-13,·,0.2,-7,-15,-1.2
CCOC(=O)c1c(NC(=O)CSc2nnc(C)c(=O)[nH]2)sc2c1CCCC2,4.9,21,·,2%,·,-1,·,1,·,-0.7
NS(=O)(=O)c1ccc(CCNc2ccc(C(F)(F)F)cn2)cc1,-2.1,3,1.5,·,5,-12,1.9,4,2,-1.3
[O-]/[N+](=C/c1ccccc1)c1ccccc1,·,·,-3.7,·,13,·,4.4,-3,8,-3.4
O=C(NC1CCCCC1)N1CCSC1=Nc1ccccc1,-1.2,-10,·,0%,·,28,·,-9,·,0.3
CCCn1c(=S)[nH]c2cc(C(=O)N(CCO)Cc3ccccc3)ccc2c1=O,3.7,-2,-3.3*,·,-23*,-5,-0.1,-1,-30*,0.1
O=C(CSc1nncs1)Nc1ccc2c(c1)OCO2,1.8,-4,2.5,·,7,-5,-1.4,-3,10,-0.3
Cc1cccc(-n2c(Cc3cc(=O)[nH]c(=O)[nH]3)nnc2SCC(=O)Nc2cccc(C(F)(F)F)c2)c1,-7.5,10,6.9,·,7,-17,1.5,-8,12,0.4
S=C(Nc1cccc(Cl)c1)NC1CC2CCCC(C1)N2C1CCCC1 (stereo unspecified),1.3,-24,-1.3,1%,-9,-45,4.1,-5,-11,0.6
COc1ccc(C(=O)O)cc1NCc1cccnc1,4.5,6,2.0,·,19,-8,6.9,-5,18,-0.4
Brc1ccsc1/C=N/Nc1ccccc1,4.9,14,·,·,·,-6,13,·,·,-2.1
O=C(CSc1nc2ccccc2s1)N1c2ccccc2Sc2ccc(C(F)(F)F)cc21,2.1,6,·,2%,·,26,·,7,·,1.1
COc1ccc(CCNC(=O)Cc2c(Cl)cccc2Cl)cc1,-3.2,6,-2.4,·,4,2,-0.6,-7,19,0.6
CCOC(=O)CSC1=C(C#N)C(c2ccccc2F)C(C(C)=O)=C(C)N1 (stereo unspecified),-1.7,-6,-14,17%,-58,20,·,-2,-35,0.3
COc1ccc(N2C(=O)CC(c3ccc(OC(C)C)cc3)C2=O)cc1 (stereo unspecified),5.8,0,-0.1,0%,12,-1,-2.6,·,10,-0.8
COc1ccccc1CNC(=O)C1CCC(CNS(=O)(=O)c2ccccc2)CC1 (stereo unspecified),2.6,-2,-8.8,2%,3,1,-1.8,·,2,0.1
CC(c1ccc(Cl)cc1)n1c(-c2ccc3ccccc3n2)n[nH]c1=S (stereo unspecified),-3.8,79*,-17,-5%,-80,13,8.5,-1,-54,0.4
Cc1nnc(SCC(=O)Nc2nsc(-c3ccc(Cl)cc3)n2)s1,-2.4,18,·,-17%,·,-8,·,-4,·,-0.6
CC[N+]1(C)CCC(=C2c3ccccc3CC(=O)c3sccc32)CC1 (stereo unspecified),-1.3,1,·,3%,·,-17,·,-3,·,0.5
CC(CCc1ccco1)NC(=O)CSc1cc(=O)n(C)c2ccccc12 (stereo unspecified),-3.0,4,·,?,·,13,·,-2,·,-0.2
COc1ccc(NC(=O)Cn2nnc(-c3ccccc3NC(=O)C3CC3)n2)cc1,1.3,-6,·,?,·,0,·,1,·,1.2
O=C(c1cnn(-c2ccccc2)c1)c1ccccc1O,3.7,-9,·,15%,·,1,·,2,·,-6.8
CCC/C(C)=N/NC(=O)c1ccccc1O,-3.6,-6,·,6%,·,-3,·,-2,·,1.8
CCc1nc2oc3ccccc3c(=O)c2c(=O)n1-c1ccccc1,·,12,·,1%,·,-2,·,3,·,-0.5
O=C(/C=C/c1ccco1)NC(=S)Nc1cccc(-c2nc3ccccc3s2)c1,-4.6,3,·,·,·,-36,·,3,·,-1.3
CN(c1ccc(OCC(=O)N2CCOCC2)cc1)S(=O)(=O)c1ccc(Cl)cc1,-0.5,1,0.5,·,4,3,3.2,-7,-3,0.2
CC1CCCN(C(=O)COC(=O)CNC(=O)c2sc3ccccc3c2Cl)C1 (stereo unspecified),·,·,·,-8%,·,·,-2.5,-4,·,1.7
CCN1CCN(CCCNC(=O)c2cc3c(=O)[nH]c4ccccc4c3s2)CC1,-4.2,2,·,3%,·,16,·,-1,·,-0.4
COc1cc(CCNc2ccc3nnc(-c4ccccc4)n3n2)cc(OC)c1OC,1.5,-3,-1.9,·,15,14,1.5,8,9,?
N#CCCN/N=C(/Cc1nc2ccccc2[nH]1)c1ccc(Cl)cc1,7.5,11,·,6%,·,12,·,2,·,0.2
CCOC(=O)C1(CCOc2ccccc2)CCN(C(=O)c2cncs2)CC1,-1.3,1,0.0,·,-19,12,-15,2,-10,-0.3
Cc1cccc(NC(=O)CC2C(=O)NCCN2C(=O)Nc2ccc(Cl)cc2)c1 (stereo unspecified),4.8,12,-2.5*,-3%,-23*,10,1.3,-14,-32*,0.5
C/C=C/C=C\C(=O)Nc1cccc(C2=NOC3(C2)C[C@@H](C(N)=O)N(C(=O)c2cc([N+](=O)[O-])cc([N+](=O)[O-])c2C)C3)c1 (stereo partly specified),0.1,11,-8.8,29%,9,-21,·,0,14,0.0
Cc1ccccc1NC(=O)c1ccco1,8.2,1,2.6,·,16,-34,-1.2,5,19,-0.4
COc1ccccc1-c1cc(C(=O)Nc2ccccc2SC)no1,2.7,-1,·,-2%,·,9,·,-2,·,-0.4
O=C(CN1CCN(Cc2ccc(F)cc2Cl)C1=O)NCCc1ccc(Cl)cc1,-0.5,-5,·,-4%,·,9,·,-4,·,-0.7
CC1CCCN(C(=O)C23CCC(C)(C(=O)C2)C3(C)C)C1 (stereo unspecified),-1.1,5,·,-3%,·,5,·,-2,·,0.0
Cn1c2ccccc2c2c(C(=O)NCC3CCCO3)cn(C3CCCC3)c(=O)c21 (stereo unspecified),?,1,·,29%,·,9,·,1,·,-1.5
CC/C(=N\NC(=O)CSc1ncccn1)c1ccc2c(c1)OCCO2,-3.0,4,4.4,5%,3,-8,-8.6,-3,1,0.4
Cn1c(N2CCCC2)nc2c1c(=O)n(Cc1ccc(F)cc1)c(=O)n2C,?,-2,·,3%,·,-12,·,-2,·,0.0
CC1(C)Cc2nc(N)c(C(=O)NCCO)cc2CO1,6.3,-5,·,-7%,·,-2,·,1,·,-0.8
Cn1c(SCC(=O)Nc2ccc3c(c2)OCO3)nnc1C(F)(F)F,·,·,-4.3,·,7,·,1.6,3,2,-0.2
CC(C)SCc1cc(N2CCCC2)nc(-c2ccccc2)n1,1.2,-31,-1.8,-2%,3,31,-7.8,-12,-3,-0.1
Cc1ccc(C(=O)NC(=S)N2CCN(c3ccc([N+](=O)[O-])cc3)CC2)cc1,-1.2,3,·,-3%,·,-13,·,-5,·,-0.9
COc1ccc(Cn2c(C)ccc2C)cc1,-3.4,-5,·,10%,·,24,·,-9,·,1.2
Cc1ccc(OCC(=O)Nc2ccc(F)cc2)cc1C,3.8,-8,-9.6,12%,11,-5,0.1,-2,-4,-0.8

# More compounds:
structure,RanGTP-Imp inh,Calb FLC,rRNA inh HTS RFP,Vif A3G,rRNA inh HTS OD600,T cruzi inh,MLL AF4-AF9 inh,Beta apoptosis,rRNA inh HTS,A1 inh
COC(=O)c1cc2c(cc1Cl)N1CCCCCC1=NS2(=O)=O,?,-1,1.0,?,0,13,·,3,10,-0.6
CCCCOC(=O)Nc1ccc(N2CCCCC2)cc1,2.6,-12,·,27%,·,20,·,2,·,-1.4
O=C(O)CSc1nnc(-c2ccc3c(c2)OCO3)o1,4.0,9,·,13%,·,9,·,-5,·,0.1
C=C(C)[C@@H]1CC=C(CN2CCC(CCOC)(C(=O)OCC)CC2)CC1,6.3,-29,3.7,-2%,10,·,1.3,-2,8,-0.2
C=CCNc1nc(C)c(CNc2c(C)cc(C)cc2C)nc1C#N,1.7,11,0.4,·,14,32,1.0,5,15,-0.4
COc1ccc(C(=S)N2CCN(C)CC2)cc1Br,1.8,-13,·,2%,·,-6,·,-8,·,0.1
CCCCN(CC(=O)NC1CCCC1)C(=O)C(=O)Nc1ccc2c(c1)OCCO2,-1.6,-8,-1.3,0%,-4,-3,1.3,-3,-3,0.2
O=C1c2ccccc2C(=O)N1CC(=O)N1c2ccccc2Sc2ccc(C(F)(F)F)cc21,0.2,-1,-1.1,·,-1,-1,-1.3,2,6,-0.7
CCCCCCc1nnc(N)s1,0.3,19,-4.1,6%,-3,-1,0.3,-5,6,0.7
Cc1ccccc1C(=O)Nc1cccc(NC(=O)c2ccc(-c3ccc(Br)cc3)o2)c1,-0.7,0,·,25%,·,22,·,15,·,1.4
COc1cccc(/C=C2\N=C3CCCCCN3C2=O)c1,-3.7,-6,·,0%,·,-1,·,-8,·,-0.3
